High-throughput results: PubChem, National Center for Advancing Translational Sciences (NCATS)
D2 agonist – human D2 receptor agonism in beta-arrestin assay; hit rate 0.084% among 360,000; P14416; DiscoveRx PathHunter D2 beta-arrestin, luminescence, 90 min; 100% = 57 uM dopamine signal; activation, % (test concentration not listed); in the data active = activation above about 40%; inconclusive = about 15% to 40%; inactive = below about 15%; also: compound concentration not given in the record; the text of the record calls up to 30% inactive
Target sequence (P14416 whole entry, looked up): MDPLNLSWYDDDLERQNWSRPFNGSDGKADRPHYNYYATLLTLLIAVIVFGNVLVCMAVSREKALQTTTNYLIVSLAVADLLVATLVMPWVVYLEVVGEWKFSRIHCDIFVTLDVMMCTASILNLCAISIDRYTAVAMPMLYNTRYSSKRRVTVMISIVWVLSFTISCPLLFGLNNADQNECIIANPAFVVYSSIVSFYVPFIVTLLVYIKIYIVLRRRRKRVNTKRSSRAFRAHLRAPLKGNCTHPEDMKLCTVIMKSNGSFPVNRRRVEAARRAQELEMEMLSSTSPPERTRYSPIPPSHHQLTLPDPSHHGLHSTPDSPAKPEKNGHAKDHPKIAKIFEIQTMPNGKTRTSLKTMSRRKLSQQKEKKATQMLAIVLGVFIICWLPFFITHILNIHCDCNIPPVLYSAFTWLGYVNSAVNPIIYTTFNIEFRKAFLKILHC
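DiscoveRx PathHunter D2 beta-arrestin cells (2,100/well) attached overnight, then compound-stimulated 90 min at 37 C in HBSS/10 mM HEPES/0.1% Tween-20 buffer; beta-galactosidase complementation read by luminescence after 1 h at ambient temperature. Dopamine 57 uM final (EC100) as control.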
PINK1 expr mod – modulators of PINK1 expression; PINK1 immunofluorescence, high-content cytometry, 24 h; Potency, µM (top dose mostly 76.6 µM), for inactives: top-dose activation (PINK1 increase), hits mostly activators; hit rate 0.2% among 410,000; active = well fitted activation curve with a large enough effect; inconclusive = small, poorly fitted or top-dose-only effect; inactive = flat fitted curve, though single readings scatter; cell line not stated here;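 also: potency is read from the fitted curve at half-maximal effect; % of control where 0% means no effect; nearly all actives have a fitted effect of over 65% in size; a mitochondrial uncoupler was the plate control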
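PINK1 protein level read as immunofluorescence by microplate cytometer in a fixed, stained stable cell line after 24 h exposure to five compound concentrations, with CCCP as control.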
TRPML1 ag – human mucolipin-1 channel agonism. Q9GZU1. TRPML1-expressing cells, Ca2+ dye fluorescence, FDSS; host cell line not named in the record; reference of the full effect not given here. activation, % (test concentration not listed). hit rate 0.12% among 410,000. AID 624414; in the data active = activation above about 50%; inconclusive = about 30% to 50%; inactive = below about 30%; also: 0% is about no effect; the text of the record puts the active cut at 80%
Target sequence (Q9GZU1 whole entry, looked up): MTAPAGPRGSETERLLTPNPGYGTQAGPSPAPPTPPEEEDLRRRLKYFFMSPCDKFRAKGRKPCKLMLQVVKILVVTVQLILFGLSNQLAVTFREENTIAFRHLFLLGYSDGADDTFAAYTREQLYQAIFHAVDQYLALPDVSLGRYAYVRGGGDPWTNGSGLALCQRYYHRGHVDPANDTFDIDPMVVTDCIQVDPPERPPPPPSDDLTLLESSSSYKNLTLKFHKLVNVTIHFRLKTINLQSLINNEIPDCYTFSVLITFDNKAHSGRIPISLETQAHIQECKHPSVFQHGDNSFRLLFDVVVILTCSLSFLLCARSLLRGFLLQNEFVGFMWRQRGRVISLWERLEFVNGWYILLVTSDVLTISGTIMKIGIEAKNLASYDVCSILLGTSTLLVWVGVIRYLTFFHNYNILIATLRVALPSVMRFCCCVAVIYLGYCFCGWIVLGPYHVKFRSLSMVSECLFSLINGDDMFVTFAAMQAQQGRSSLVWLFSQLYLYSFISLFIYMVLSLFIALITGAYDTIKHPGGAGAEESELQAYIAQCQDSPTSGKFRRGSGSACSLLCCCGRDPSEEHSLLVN
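Kinetic FDSS Ca2+ read in Tet-induced TRPML1-DL cells (ABD Ca8 dye plus quencher, 45-90 min RT loading): baseline, then compound, then 110 s agonist window; EC80 agonist 54-4 at 4uM final added afterwards for a 110 s antagonist window.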
CtBP-E1A blk – CtBP/E1A binding inhibition; AlphaScreen GST-E1A/His-CtBP binding, 1536-well; stronger effect = lower value; control for the full effect not named in the record; activity change, % (no concentration beside the values); hit rate 0.49% among 340,000; AID 651724; in the data active means activity change below about -65%; inconclusive means about -30% to -65%; inactive means above about -30%; also: % is scaled to controls: 0 for no effect and ±100 for the full control effect; compound concentration not given in the record
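Protein mix (5X: 125 nM each GST-E1A, His-CtBP) was incubated with pinned compound 2 h at 37 deg C in dark, in 50 mM Tris pH 8.0 buffer with 300 mM NaCl. Glutathione donor and nickel acceptor beads followed; AlphaScreen signal read after 1 h.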
Six1-Eya2 blk – blocks human Six1 binding to Eya2; AlphaScreen GST-Six1/His-Eya2 binding, biochemical; stronger effect = lower value; control for the full effect not named in the record; activity change, % (no concentration beside the values); hit rate 0.56% among 360,000; in the data active = activity change below about -65%; inconclusive = about -30% to -65%; inactive = above about -30%; also: % is scaled to controls: 0 for no effect and ±100 for the full control effect; compound concentration not given in the record
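Compounds are tested against tagged Six1 and Eya2 proteins bridged by glutathione donor and nickel acceptor beads; after a one-hour incubation at 37 °C without light, AlphaScreen emission is recorded.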
D2 potentiator – positive allosteric modulators of human D2 dopamine receptor | P14416 | DiscoveRx D2 beta-arrestin cells, luminescence, 90 min; 100% = 57 uM dopamine signal | potentiation, % (no concentration beside the values) | hit rate 0.23% among 360,000 | AID 624464; active = potentiation of 50% or more; inconclusive = 30% to 50%; inactive = 30% or less;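 also: compound concentration not given in the record; tested on top of an EC20 dose of dopamine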
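PathHunter beta-arrestin assay in DiscoveRx D2 cells. Compounds were added with an EC20 of dopamine (50 nM final) for 90 min at 37 deg C. Luminescence was read 1 h after detection reagent, with 57 uM dopamine as the EC100 control.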
* = called active by the depositor; ? = inconclusive; nt = not tested or not shown; [ ] = dose if it differs, or a comment.

SMILES	D2 agonist	PINK1 expr mod	TRPML1 ag	CtBP-E1A blk	Six1-Eya2 blk	D2 potentiator
O=C(NCc1cccc(Cl)c1)c1cccnc1	-1.8	7.4%[38.3 µM]	-0.6	4.1	4.3	-9.3
CCOC(=O)N1CCN(C(=O)N2CCOCC2)CC1	-3.6	-0.2%	0.1	9.0	6.4	-7.9
CCOc1ccc(C(=O)NCC(=O)Nc2ccncc2)cc1OCC	-2.8	-1.5%	0.0	0.0	-4.7	-5.5
Fc1ccc(CSc2ccc3nnc(-c4cccs4)n3n2)cc1	2.4	0.1%	-1.0	nt	1.1	-0.7
CS(=O)(=O)N(CC(=O)N1CCc2ccccc2C1)Cc1ccccc1	-0.7	nt	-0.5	8.0	4.1	-6.9
O=C(NCCc1ccccc1)C1CCCN1C(=O)Nc1ccccc1 (configuration not stated)	-2.3	0.5%	nt	nt	-6.2	-33.7
Cc1cnc(NC(=O)C(C)N2CCN(C)CC2)s1 (configuration not stated)	-7.8	0.7%	0.4	nt	0.6	-4.9
O=C(Cc1cccc2ccccc12)Nc1ccc(OC(F)F)c(Cl)c1	1.4	13.3%	1.2	7.2	7.4	1.5
CC1=CC=CN2CC(O)CN=C12 (configuration not stated)	0.6	0.5%	-0.8	-4.9	4.3	-16.4
Cc1nn(C)cc1C1C2=C(CC(C)(C)CC2=O)OC2=C1C(=O)CC(C)(C)C2	-4.1	nt	0.1	9.9	1.7	5.3
COCCN(C(=O)COC(=O)/C=C/c1ccc(C)o1)c1c(N)n(Cc2ccccc2)c(=O)[nH]c1=O	-2.9	-1.4%	0.4	1.6	0.0	-6.7
O=C(CSc1ccccc1F)NCCCN1CCCC1=O	-2.3	-1.7%	0.6	4.4	-0.3	3.8
CCCCNc1c(-c2cccc(Sc3ccc(OC)cc3)c2)nc2ccccn12	13.7	?	1.0	-11.0	-9.8	22.2
O=C(CN1CCc2ccccc2C1)N1CCN(S(=O)(=O)c2ccccc2)CC1	6.4	3.4%[38.3 µM]	-0.4	0.5	-2.3	-5.0
CCOc1ccccc1CNS(=O)(=O)c1cnc[nH]1	-0.8	0.1%	-0.1	nt	6.0	-3.1
Nc1cc2c(cc1Cl)-c1ccccc1C2=NO	-3.0	-1.4%	3.2	-11.3	-22.6	-6.4
CCOc1ccc(NC(=O)CS(=O)CC(=O)NC2CCCc3ccccc32)cc1 (configuration not stated)	2.4	4.9%	0.8	-1.2	7.9	14.8
CCc1cccc(C)c1NC(=O)COC(=O)c1cc([N+](=O)[O-])ccc1N1CCOCC1	-4.9	3.2%	1.8	7.8	-6.3	9.3
CCC(=O)N1CCN=C1SCc1ccc(Cl)cc1	-0.6	-1.5%	1.0	12.6	12.3	-8.6
COc1nc(Oc2ccc(/C=N/O)cc2)nc(N(C)C)n1	3.0	-1.3%[38.3 µM]	0.8	-6.5	-3.4	-5.2
CCC(C)n1c(=S)[nH]c2ccccc2c1=O (configuration not stated)	-2.4	8.3%	2.6	-21.8	6.5	0.0
NNC(=O)c1ccc(-c2ccccc2F)cc1	-3.6	0.6%	-0.8	nt	-1.1	-17.1
Cc1c(C(=O)N2CCOCC2)sc(NC(=O)c2ccc3c(c2)OCO3)c1C#N	-0.4	-5.4%[38.3 µM]	0.2	-15.3	-14.6	-5.9
O=C1C=CC(=O)N1c1ccc(-c2nc3ccccc3o2)cc1	-3.3	1.3%	0.7	8.3	-5.0	-27.8
O=C(CCC(=O)OCc1cccc(C(=O)Oc2ccccc2)c1)Nc1cccc2ccccc12	1.9	13.3%[38.3 µM]	0.7	0.2	-0.8	-9.0

Brought forward from above: 2 compounds, followed by the next part.
SMILES	D2 agonist	PINK1 expr mod	TRPML1 ag	CtBP-E1A blk	Six1-Eya2 blk	D2 potentiator
O=C1C=CC(=O)N1c1ccc(-c2nc3ccccc3o2)cc1	-3.3	1.3%	0.7	8.3	-5.0	-27.8
O=C(CCC(=O)OCc1cccc(C(=O)Oc2ccccc2)c1)Nc1cccc2ccccc12	1.9	13.3%[38.3 µM]	0.7	0.2	-0.8	-9.0
O=C(Nc1cccnc1)C1CCCN1S(=O)(=O)c1ccc(Cl)c(Cl)c1 (configuration not stated)	-0.7	1.3%[38.3 µM]	0.8	5.8	2.1	-20.2
O=C(COC(=O)c1cccc(S(=O)(=O)N2CCc3ccccc32)c1)Nc1ccc(Cl)cn1	-4.4	1.0%	0.6	nt	6.5	-3.7
CCCN1CCN(S(=O)(=O)c2ccc3c(c2)NC(=O)C(C)C(=O)N3)CC1 (configuration not stated)	1.1	-1.3%	0.3	22.4	5.1	-1.5
CSc1cccc(NC(=O)C2CCCN(S(C)(=O)=O)C2)c1 (configuration not stated)	-2.0	2.0%	0.0	-4.0	2.2	-18.1
COc1ccc2[nH]c3nc(SCC(=O)Nc4ccc5c(c4)OCO5)nnc3c2c1	-3.5	2.4%	-0.8	?	?	-14.7
O=C(NN1C(=O)/C(=C/C=C/c2ccccc2)SC1=S)c1ccncc1	1.7	0.8%	-0.1	-5.6	-5.1	-6.8
CC1(Cc2ccccc2C#N)C(=O)Nc2ccc(OC(F)(F)F)cc21 (configuration not stated)	11.4	2.5%	0.8	-11.0	-6.5	-1.8
CC(C)C[C@@H](CN1CCCC1CN1C(=S)NC[C@@H]1Cc1ccccc1)N1C[C@H](Cc2ccc(O)cc2)N(CC2CCCCC2)C1=S (some centres not stated)	nt	19.1%	-0.6	-5.9	15.6	nt
Cc1cc(=O)n2[nH]c(-c3sccc3-n3c(C)ccc3C)cc2n1	-5.1	1.2%	0.3	-6.8	-13.1	-3.3
COc1ccc(NC(=O)CCN2CCN(S(=O)(=O)c3ccc(F)cc3)CC2)cc1	2.4	-0.5%	-0.9	0.6	0.9	-5.3
CCOC(=O)c1ccc(NC(=O)Cc2cccs2)cc1	-4.9	1.7%	1.3	-6.1	5.9	-2.9
COC(=O)c1ccc(NC(=O)CSc2nnc(C)n2CC2CCCO2)cc1 (configuration not stated)	-11.9	0.1%	-1.4	-11.8	1.7	-9.4
CCCCOc1ccc(C(=O)NCC(=O)NCC(c2ccc(OC)cc2)N2CCCC2)cc1 (configuration not stated)	-3.5	2.0%	-0.7	-2.7	-5.8	-17.4
Cc1cc(C(=O)Nc2cnn(Cc3ccc(Cl)cc3Cl)c2)no1	-1.3	-2.3%[38.3 µM]	1.1	2.2	-1.6	-6.7
COc1ccc(NC(=O)CCS(=O)(=O)c2ccccc2)c(OC)c1	-0.2	0.4%[38.3 µM]	-0.1	9.0	1.4	2.3
O=C(CSc1nncs1)NC(=O)Nc1ccc2c(c1)OCCO2	-0.6	-0.4%	0.6	2.9	6.7	-6.1
COc1ccc(NC(=O)CCNC(=O)c2ccccc2)cc1S(N)(=O)=O	2.3	-1.0%	-0.3	5.1	1.2	-2.4
Cc1ccc(C2CC(c3ccccc3OC(F)F)Nc3ncnn32)cc1 (configuration not stated)	-3.3	-0.5%	2.2	-1.4	6.4	-2.9
Cc1ccc(-c2cnn(-c3cccc(C(F)(F)F)c3)c2N)cc1	1.5	?	-1.1	8.1	-0.2	-5.4
O=C(Nc1ccccc1N1CCCCC1)c1cc(S(=O)(=O)N2CCOCC2)ccc1F	-6.5	?	1.1	-18.1	-4.4	-6.1
COC(=O)c1ccc(C2=NOC(C)(c3nnc(-c4cccc(Cl)c4)o3)C2)cc1 (configuration not stated)	3.5	-0.7%	-0.6	7.3	-1.6	-0.1
CC(C)OCCCn1c(=N)c(C(N)=S)cc2c(=O)n3ccccc3nc21	-2.6	-4.4%	-0.4	-9.8	-16.2	-6.0
CNc1nc(-c2ccc(OC)cc2)c(-c2ccc(OC)cc2)s1	-3.5	2.1%	0.5	-11.3	-5.3	-0.7
CCOC(=O)N1CCC(NC(=O)c2ccc3c(Cl)c4c(nc3c2)CCCC4)CC1	1.2	0.9%	1.3	0.0	-15.0	6.9
COC(=O)C(Cc1cccc(C)n1)(c1ccccc1)c1ccccc1	6.5	2.4%	4.8	1.0	7.2	-9.3
More records.
SMILES	D2 agonist	PINK1 expr mod	TRPML1 ag	CtBP-E1A blk	Six1-Eya2 blk	D2 potentiator
CCOc1ccccc1CNC(=O)c1ccc(NC(=O)C2=CSCCO2)cc1	2.7	1.6%	1.5	nt	-6.0	-6.5
NC(=S)NN=C1c2cc(S(=O)(=O)N3CCOCC3)ccc2-c2ccc(S(=O)(=O)N3CCOCC3)cc21	-6.0	4.7%	1.0	-0.5	-26.0	-22.3
N#CCO/N=C(\c1ccccc1)c1ccncc1	1.2	4.0%[38.3 µM]	0.5	3.0	-0.9	0.9
Nc1ccc2ncccc2c1N	1.7	15.1%	0.0	-2.4	1.0	20.0
O=C(c1ccccc1)C(CCc1ccccn1)CCc1ccccn1	-0.4	2.1%	-0.2	6.4	-6.2	-13.3
O=c1c2ccccc2nc2ccc(NCc3cccs3)nn12	4.9	0.6%	1.5	?	?	2.9
Cc1ccc(CSc2nnc(-c3ccccn3)n2Cc2cccs2)cc1	2.6	4.8%	2.2	7.9	1.8	-6.3
CCSc1ccccc1C(=O)NCc1ccc2c(c1)OCO2	0.8	2.3%[38.3 µM]	-0.1	5.8	1.5	-5.1
Cc1ccc(-c2nc(CS(=O)(=O)CC(=O)N3CC(C)CC(C)C3)c(C)o2)cc1 (configuration not stated)	-0.5	-0.7%	0.1	4.5	1.1	-3.4
CC(=O)NC(Cc1ccccc1F)C(=O)NC1CCN(S(=O)(=O)c2ccccc2)CC1 (configuration not stated)	-2.6	-0.7%	0.4	-12.6	5.2	-10.4
C#CCOCCOCCOCCNc1nc(N2CCN(C(=O)C([C@@H](C)O)n3cc([C@@H](N)CCCCN)nn3)CC2)nc(N2CCN(C(=O)[C@H](CCCCN)n3cc([C@@H](N)[C@H](C)CC)nn3)CC2)n1 (some centres not stated)	-1.8	1.0%	-0.6	8.1	15.3	3.1
CCOc1ccc(Nc2nc(N(C)c3ccccc3)nc(N)c2[N+](=O)[O-])cc1	-6.3	9.5%	-1.7	4.4	1.5	-8.0
COCCCN(Cc1cc(OC)c(OC)c(OC)c1)C(=S)Nc1cccc(SC)c1	-1.9	-1.2%	0.0	6.8	-10.0	-3.9
Cc1ccc(N(C(=O)Cc2c[nH]c3ccccc23)C(C(=O)NC2CCCCC2)c2ccco2)cc1 (configuration not stated)	-3.1	8.9%	3.7	-12.0	-13.6	-15.9
CC(=O)NC(Cc1ccc(F)cc1)C(=O)NC1CCN(c2ncccc2[N+](=O)[O-])CC1 (configuration not stated)	-5.0	2.4%	-0.3	-2.3	-0.1	-2.9
CCOC(=O)Cn1c(=O)oc2cc(S(=O)(=O)NC3CCCc4ccccc43)ccc21 (configuration not stated)	11.9	2.6%	-0.2	6.6	6.3	-0.8
O=C(C(Cc1ccccc1)NS(=O)(=O)c1cccc2cccnc12)N1CCc2ccccc21 (configuration not stated)	-1.2	0.0%	-0.7	3.4	-4.0	-5.0
Cc1c(C(=O)/C=C/c2ccccc2F)c2cc(O)ccc2n1C	0.5	0.7%	-0.9	4.2	5.4	-5.4
O=S(=O)(c1ccccc1)N1CCN(C2CCCCCCC2)CC1	-1.8	-1.2%	0.8	0.7	-3.6	12.7

The order is random. About 1.3% of those tested had a hit in this group.
